# Rce1 inhib: yeast Ras-converting enzyme inhibition | Q03530 | yeast membranes, quenched prenylated peptide cleavage fluorescence | calls only | 290,000 compounds, 0.27% hits;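 active = fall in fluorescence gain of 50% or more versus controls, with final raw signal at or below 3038400; inconclusive = same 50% fall but final raw signal above 3038400; inactive = fall in fluorescence gain under 50%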;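 note: plate controls were neutral control wells for no effect and wells lacking membranes for full effect; tested at 10 µM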
# Target sequence (Q03530 whole entry, looked up): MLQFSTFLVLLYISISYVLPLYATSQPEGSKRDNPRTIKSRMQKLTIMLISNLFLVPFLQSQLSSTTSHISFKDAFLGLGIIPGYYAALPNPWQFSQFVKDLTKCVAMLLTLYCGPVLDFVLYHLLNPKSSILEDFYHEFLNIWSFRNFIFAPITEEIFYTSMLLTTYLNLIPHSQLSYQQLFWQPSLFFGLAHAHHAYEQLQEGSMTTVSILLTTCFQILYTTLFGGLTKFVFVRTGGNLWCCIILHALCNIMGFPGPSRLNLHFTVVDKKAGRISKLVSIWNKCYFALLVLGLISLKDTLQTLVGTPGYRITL
# eIF4H inh: inhibitors of RNA binding by human eIF4H; Q15056; eIF4H fluorescence polarization binding assay; inhibition, % at 35 µM; 290,000 compounds, 0.94% hits;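 active = 50% or more with normal probe brightness, or confirmed in later tests; inconclusive = above 50% with abnormal brightness, or retests that disagree; inactive = below 50% or failed in later tests; about a fifth of its hits are not listed in these tables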;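 note: calls also rest on retests at 20 µM and on dose response follow-up; 0% = protein and probe with vehicle and 100% = probe without protein; strong numbers were not always called active; many hits fall short of the cut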
# MT1-MMP act inh: inhibitors of human MT1-MMP activation | 360,000 compounds, 0.061% hits | P50281 | HT1080 RFP-PRO-GFP cells, GFP/RFP ratio fluorescence, overnight; percent of plate control window, DMSO zero | GFP/RFP ratio change, % at 20 µM;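 active = GFP/RFP ratio change of at least 30% with cell ATP level not reduced by more than half and red fluorescence within 50% of control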; note: strong numbers were not always called active
#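 Assay system: HT1080 cells carrying an RFP-PRO-GFP reporter | Dosing: Single dose of 20 µM compound, 1% DMSO final | Incubation: Cells overnight before dosing, compound overnight, 37 °C, 5% CO2 | Evaluation: GFP/RFP fluorescence ratio | Control set: DMSO and RFP-L50D-GFP cell wells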
# CSC inhib: blocks cancer stem cells; cancer stem cell-like cells viability, luminescence; inhibition, % at 7.5 µM; 300,000 compounds, 1.1% hits; AID 2717;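 active = mean at 75% or more and at least half the replicates too; inconclusive = mean and replicates disagree; tested in HMLE shEcad cells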;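 note: 0% = median of negative and 100% = median of positive control wells; the first replicate is given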
# HIV Env fusion: inhibitors of HIV Env-mediated cell fusion | HeLa-JRFL Env/CEM21 cell fusion, luciferase | inhibition, % at 12.3 µM | 360,000 compounds, 1.1% hits | AID 651610;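 active = mean replicate inhibition score of at least 50 and every replicate individually at or above 50; inconclusive = only one of the two criteria met; inactive = mean below 50 and not all replicates reaching 50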;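 note: 0% = plate neutral controls and 100% = maraviroc near 300 nM; one replicate is shown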
# UUG fidelity: yeast start codon fidelity modulation. activity score, % at 18.7 µM. 350,000 compounds, 0.13% hits. S. cerevisiae UUG-firefly luciferase reporter, luminescence/redox ratio;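 active = replicate mean at a twofold rise or more, about +100% in these data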;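 note: firefly luciferase made from a UUG start codon reports start codon fidelity; reporter light over untreated wells divided by growth signal over untreated wells; some hits fall short of that in this replicate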
# PABP polyA inh: blocks human PABP binding to poly(A) RNA; inhibition, % at 35 µM; AID 2014; fluorescence polarization; 290,000 compounds, 1% hits;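 active = 50% or more with normal probe brightness, or confirmed in later tests; inconclusive = above 50% with abnormal brightness, or retests that disagree; inactive = below 50% or failed in later tests; about a fifth of its hits are not listed in these tables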;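 note: calls also rest on retests at 20 µM and on dose response follow-up; controls were probe without protein and protein plus probe with vehicle; some compounds called inactive have numbers as strong as hits; many hits fall short of the cut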
# MT1-MMP act inh RFP: also measured in MT1-MMP act inh; calls as there; RFP signal change, %; measured here: RFP expression control read;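 0 = vehicle wells; hits needed this value within 50% of zero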
# Numbers without * were called inactive; i = inactive; ? = inconclusive; · = no result given; + = active, no number; & = joins results of further samples. This is a subset (hit frequency here may not be typical).
SMILES,Rce1 inhib,eIF4H inh,MT1-MMP act inh,MT1-MMP act inh RFP,CSC inhib,HIV Env fusion,UUG fidelity,PABP polyA inh
CSc1nc2sc3c(c2c(=O)[nH]1)CCC3,i,2.8,-3.0,0.9,-15.1,-17.7,-19.8,18.5
CS(=O)(=O)N1CCN(C(=O)c2ccc(F)cc2)CC1,i,13.3,-1.0,-0.9,-12.2,·,2.8,8.8
CC(C)CCC(C(=O)NC(C)c1ccccc1)C(=O)NC(C)c1ccccc1 (stereo unspecified),i,10.0,0.1,-2.9,-2.7,-1.3,-31.2,-3.2
O=C(COc1ccc(Br)cc1)N(Cc1nnc(-c2ccccc2Cl)o1)C1CC1,·,·,-2.3,-2.4,·,3.4,-2.9,·
CCN(CC(=O)Nc1ccc(NC(C)=O)cc1)C(=O)CCCOc1cccc(C)c1,i,·,1.6,-17.4,-6.4,·,-6.8,·
O=C(O)c1cccc(N/N=C/c2cc(Br)cc(Br)c2O)c1,i,28.1,-3.6,-2.5,-3.2,-50.4,-10.2,20.5
CCCCNc1c([N+](=O)[O-])ncn1C,i,2.2,-2.2,3.0,3.5,-8.2,-14.6,1.8
COc1ccc(Br)cc1CSC(=N)N,i,-1.9,-2.5,-6.7,-11.3,-7.8,·,2.3
COc1ccc(N(CC(=O)NCCSCc2ccc(C)cc2)S(=O)(=O)c2ccccc2)cc1,i,-8.1,0.5,-6.0,6.6,34.5,-5.8,-4.7
O=C(Nc1ccc(Nc2ccccc2)cc1)c1ccc(Cl)c([N+](=O)[O-])c1,i,1.9,5.9,-5.9,50.4,-16.9,-13.8,3.2
COc1ccc(C2C=C(c3ccc(Br)cc3)Nc3nc(NS(C)(=O)=O)nn32)cc1 (stereo unspecified),i,?,·,·,-0.7,·,·,2.7
O=C(NC12CC3CC(CC(C3)C1)C2)N1CCCC(CO)C1 (stereo unspecified),i,4.2,0.7,5.5,-11.9,·,-0.7,13.2
CN(C(=O)c1cccc(NC(=O)Cc2ccc(NC(=O)C3CCN(C(=O)CCc4ccccc4)CC3)cc2)c1)C1CC1,·,·,1.1,-3.9,·,12.8,-2.8,·
O=c1ccnc(SCc2ccccc2Cl)[nH]1,·,-8.6,-2.7,2.1,-3.8,-191.8,-23.0,1.8
COc1ccc(-c2ccc3c(c2)S(=O)(=O)c2cccc(C(=O)NC[C@@H]4CCCO4)c2C3=O)cc1OC,·,·,4.2,2.0,-15.6,5.1,-6.1,·
COc1ccc(C#Cc2cnc3c(c2)C(=O)N([C@@H](C)CO)C[C@@H](C)[C@@H](CN(C)CC2CCOCC2)O3)cc1,·,·,0.6,2.9,·,13.9,6.1&-2.6,·
Nc1ccc(C(O)(C(F)(F)F)C(F)(F)F)cc1,i,0.8,-5.0,-2.6,-4.6,32.1,4.7,-2.9
Cc1ccc(C(=O)N2CCC(C)CC2)cc1C,i,-2.7,2.7,-0.5,·,·,8.3,-2.4
O=C(C[n+]1cc[nH]c1)c1ccc(Cl)cc1,i,-1.0,-0.1,1.2,-14.3,0.4,-12.5,10.4
COc1cc2c(cc1NC(=O)COC(=O)C(CCSC)NC(=O)c1ccccc1Cl)oc1ccccc12 (stereo unspecified),i,2.4,-2.6,-2.6,-1.4,·,·,-7.4
Cc1ccc2oc(=S)n(C)c2c1,i,-0.3,2.7,3.0,-7.2,-11.8,·,-2.0
N#CC1=C(N)Oc2ccc3ccc(O)cc3c2C1c1cccnc1 (stereo unspecified),i,14.8,-3.9,-4.0,-10.0,·,-15.7,9.1
O=C(c1cccc([N+](=O)[O-])c1)N1CCCC(C(=O)N2CCc3ccccc3C2)C1 (stereo unspecified),i,5.6,-4.2,3.7,-6.8,3.8,11.3,1.9
COCc1ccc(C(=O)N(C)CC2CCCN(CCc3ccccc3F)C2)o1 (stereo unspecified),i,-7.4,0.6,5.7,-6.0,3.6,-14.5,-2.3
CCCCc1c(O)nc2sccn2c1=O,i,10.1,-2.9,8.6,-0.5,-5.7,-12.9,-2.5
CCCN1C(=O)c2ccc(C(=O)NC3=NCCS3)cc2C1=O,i,-1.1,1.0,1.2,-16.0,·,-11.2,-7.9
Cc1cccc(OCC(=O)Nc2ccc(N3CCN(C(=O)c4ccco4)CC3)cc2)c1C,i,-2.3,2.4,-3.5,22.3,4.0,·,4.5
CCN(CC)C(=O)CSc1nnc([C@H](Cc2c[nH]c3ccccc23)NC(=O)OC(C)(C)C)o1,i,-1.6,-1.2,2.0,-12.5,-4.3,7.1,3.5
CC(c1ccccc1)n1cc(C(=O)NCC2CCCO2)nn1 (stereo unspecified),i,2.2,0.5,4.0,-7.2,·,-5.5,7.8
Cc1ccc(OCC(=O)NC(C)c2ccccc2)cc1C (stereo unspecified),i,-6.4,-3.0,-5.8,-2.3,4.7,-1.5,1.0
Cc1cc(C)cc(NC(=O)CCn2cnc3cc(C)c(C)cc32)c1,i,3.6,-12.9,-2.6,-6.4,9.3,·,-6.6
CCC(CO)Oc1cc(NCc2ccccc2)c2ncn(C(C)C)c2c1 (stereo unspecified),·,·,3.4,6.8,·,0.5,6.8&-1.8,·
COc1ccc(/C=C(\NC(=O)c2ccc(OC)cc2)C(=O)N2CCCCC2)cc1,i,1.9,-0.3,-5.9,-13.5,7.2,12.2,-8.4
CCN(CC)CCN(C(=O)c1ccc2c(c1)CCCC2)c1nc2c(C)cccc2s1,i,-4.8,-2.5,-1.4,29.6,27.4,4.9,11.7
COc1ccccc1-n1cnnc1SCC(=O)N1CCN(S(=O)(=O)c2ccccc2)CC1,i,2.9,4.0,6.4,-6.7,?,-9.5,-3.7
COc1cccc(CNC(=O)[C@@H](C)N2C(=O)N3CCc4c([nH]c5ccc(OC)cc45)C3(C)C2=O)c1 (stereo partly specified),i,-1.5,4.5,-18.4,-2.1,·,22.5,-0.2
COC(=O)c1ccc(COC(=O)CNC(=O)c2ccc(C)s2)cc1,·,·,-4.5,2.9,-16.9,·,-17.2,·
CCN1CCN(c2nc(Nc3ccccc3)nc(N)c2[N+](=O)[O-])CC1,i,-2.9,-3.7,1.9,1.1,-13.6,·,-3.4
O=C(OCc1ccccc1)C1CCN(S(=O)(=O)c2cccs2)CC1,·,·,2.6,6.4,·,15.5,-4.3,·
CCCOc1ccc(-c2nc(C#N)c(NCC3CCCO3)o2)cc1 (stereo unspecified),·,-5.2,0.4,-0.7,7.4,3.3,-12.1,-1.3
COc1ccc(-c2csc(C(O)c3cccc(OC)c3)n2)cc1 (stereo unspecified),·,·,-6.4,-22.7,·,19.2,-12.5,·
COc1ccc(NC(=O)CN(C)C(=O)c2ccc3ccccc3n2)cc1,·,·,1.2,0.6,-15.4,0.1,-14.7,·
O=S(=O)(NCc1ccc2c(c1)OCO2)c1ccc2c(c1)oc1ccccc12,i,-6.9,-0.1,3.4,21.3,·,-2.3,2.3
CC1(c2nnc(-c3ccc(F)cc3)o2)CC(c2ccc(F)cc2)=NO1 (stereo unspecified),i,-7.5,-3.8,-2.8,9.4,-16.4,-5.3,0.7
Cc1cccc(NC(=O)c2cc(-c3ccc(C)s3)nc3ccccc23)n1,i,-7.9,-18.0,-10.2,51.4,-13.2,-16.0,-12.5

# Copied from the listing for reference:
SMILES,Rce1 inhib,eIF4H inh,MT1-MMP act inh,MT1-MMP act inh RFP,CSC inhib,HIV Env fusion,UUG fidelity,PABP polyA inh
Cc1cc(C)cc(NC(=O)CCn2cnc3cc(C)c(C)cc32)c1,i,3.6,-12.9,-2.6,-6.4,9.3,·,-6.6
CCC(CO)Oc1cc(NCc2ccccc2)c2ncn(C(C)C)c2c1 (stereo unspecified),·,·,3.4,6.8,·,0.5,6.8&-1.8,·
COc1ccc(/C=C(\NC(=O)c2ccc(OC)cc2)C(=O)N2CCCCC2)cc1,i,1.9,-0.3,-5.9,-13.5,7.2,12.2,-8.4

# Further structures follow:
SMILES,Rce1 inhib,eIF4H inh,MT1-MMP act inh,MT1-MMP act inh RFP,CSC inhib,HIV Env fusion,UUG fidelity,PABP polyA inh
CCN1C(=O)CC(N2CCN(c3ccc(OC)cc3)CC2)C1=O (stereo unspecified),i,-6.2,2.0,2.1,1.6,-14.8,-13.2,-4.7
C=C(C)CN(CC)C(=O)CN1C(=O)NC2(CCc3ccccc32)C1=O (stereo unspecified),i,-2.9,-0.8,-1.0,-13.1,-30.4,-11.2,22.7
CC1=CC(C)[C@H](/C=N/n2c(=O)[nH]c3c([nH]c4ccc(Br)cc43)c2=O)C(C)C1 (stereo partly specified),i,5.5,-5.9,2.9,+,17.7,-15.6,-20.5
COC(=O)c1[nH]c2ccc(Br)cc2c1NC(=O)C(C)N1CCN(C2CCCCC2)CC1 (stereo unspecified),i,-4.5,3.3,5.9,-1.9,·,0.4,-1.3
Cc1ccc(CNC(=O)CCS(=O)(=O)c2ccc(Cl)cc2)cc1,i,-6.3,1.2,2.9,-15.0,4.0,2.4,-5.3
O=C(c1cccn2c(=O)c3cc(Br)ccc3nc12)N1CCN(c2ccccn2)CC1,·,-7.5,1.6,-1.9,-10.1,-117.8,-2.8,-3.6
Cc1cc(C)n(-c2ccc(C(=O)N3CCN(S(=O)(=O)c4ccc(Cl)cc4)CC3)cc2)n1,·,·,2.6,-8.1,11.8,·,-15.9,·
Cc1cc(C)n(C(=O)CSc2nc3ccccc3o2)n1,i,4.8,4.1,2.9,·,-33.5,-0.5,6.1
O=[N+]([O-])c1ccc(Sc2ccc(F)cc2)nc1,i,·,1.5,-3.2,0.1,-4.3,·,·
O=C(c1cccc(S(=O)(=O)Nc2cccc(C(F)(F)F)c2)c1)N1CCOCC1,i,-12.6,2.1,1.0,-17.4,-14.4,·,6.3
C=CCNC(=S)N1CC2(C)CN(C(=S)NCC=C)CC(C)(C1)C2=O,i,-12.6,4.9,4.0,-23.6,5.0,-19.6,1.8
Cc1nc(C)c(C(=O)OCC(=O)NCc2ccccc2)s1,·,·,3.4,2.8,·,-68.7,-20.7,·
CCOC(=O)Cc1csc(N/N=C\c2ccccc2OC)n1,i,-8.6,2.3,-1.0,3.9,-7.0,-13.5,-0.8
Cc1nc2ccc(NC(=O)N3CCN(c4ccccn4)CC3)cc2s1,i,1.1,1.5,2.6,1.6,27.7,-1.6,4.5
COc1cccc(C(=O)N2CCN(C(=O)c3cccc4ccccc34)CC2)c1OC,i,-11.6,-5.0,-2.4,-23.7,·,-0.7,-6.2
COc1ccc([C@H]2C[C@@H](n3cc(-c4ccc(F)cc4)nn3)[C@H](O)CN2C(=O)C2CCCCC2)cc1,·,·,-1.9,0.8,·,-6.2,6.5,·
CC1CCCCN1C(=O)Cc1ccc(F)cc1 (stereo unspecified),i,-0.2,-5.0,-7.0,-20.3,-19.9,·,-6.7
Cc1[nH]n(-c2ccccc2)c(=O)c1N=Nc1ccccc1C(=O)O,i,13.6,0.2,-6.9,5.2,-8.9,0.0,20.1
O=C(C1CCCCN1S(=O)(=O)c1ccccc1[N+](=O)[O-])N1CCOCC1 (stereo unspecified),i,0.8,0.5,2.9,1.2,22.1,·,?
Cn1ccnc1SCC(=O)Nc1cccc(C(F)(F)F)c1,i,1.1,4.4,1.7,3.0,·,-15.3,-1.7
C=CC[C@@H](CC(=O)N(CCO)Cc1ccccc1)C(=O)NCCOC(=O)[C@@H](CC=C)Cc1ccc(F)cc1,·,·,-1.1,-10.9,·,-76.5,-1.0,·
Cn1c(=O)n(C)c2cc(NC(=O)c3ccc(F)cc3)ccc21,i,14.0,3.5,5.4,-13.2,-5.8,-9.7,12.4

# Screening results (PubChem BioAssay)
